Screens deposited in PubChem BioAssay by National Center for Advancing Translational Sciences (NCATS).
EPAC2 ant val: human EPAC2 antagonism, validation; 1.7% of 16,000 active; AID 1645886; Potency, µM (top dose mostly 112 µM), without a hit: at the top dose activity, negative = inhibition, most hits filed as inhibitors; EPAC2 Rap1B BODIPY-GDP exchange, fluorescence; Q8WZA2; active means well fitted inhibition curve with a large enough effect; inconclusive means small, poorly fitted or top-dose-only effect; inactive means no such curve, though single readings can be large or run the other way;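 further: 100% = activation by cAMP agonist control; nearly all actives have a fitted effect of over 40% in size; the record reuses the description of the EPAC1 agonist screen; inactives centre near -10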
Target sequence (Q8WZA2 whole entry, looked up): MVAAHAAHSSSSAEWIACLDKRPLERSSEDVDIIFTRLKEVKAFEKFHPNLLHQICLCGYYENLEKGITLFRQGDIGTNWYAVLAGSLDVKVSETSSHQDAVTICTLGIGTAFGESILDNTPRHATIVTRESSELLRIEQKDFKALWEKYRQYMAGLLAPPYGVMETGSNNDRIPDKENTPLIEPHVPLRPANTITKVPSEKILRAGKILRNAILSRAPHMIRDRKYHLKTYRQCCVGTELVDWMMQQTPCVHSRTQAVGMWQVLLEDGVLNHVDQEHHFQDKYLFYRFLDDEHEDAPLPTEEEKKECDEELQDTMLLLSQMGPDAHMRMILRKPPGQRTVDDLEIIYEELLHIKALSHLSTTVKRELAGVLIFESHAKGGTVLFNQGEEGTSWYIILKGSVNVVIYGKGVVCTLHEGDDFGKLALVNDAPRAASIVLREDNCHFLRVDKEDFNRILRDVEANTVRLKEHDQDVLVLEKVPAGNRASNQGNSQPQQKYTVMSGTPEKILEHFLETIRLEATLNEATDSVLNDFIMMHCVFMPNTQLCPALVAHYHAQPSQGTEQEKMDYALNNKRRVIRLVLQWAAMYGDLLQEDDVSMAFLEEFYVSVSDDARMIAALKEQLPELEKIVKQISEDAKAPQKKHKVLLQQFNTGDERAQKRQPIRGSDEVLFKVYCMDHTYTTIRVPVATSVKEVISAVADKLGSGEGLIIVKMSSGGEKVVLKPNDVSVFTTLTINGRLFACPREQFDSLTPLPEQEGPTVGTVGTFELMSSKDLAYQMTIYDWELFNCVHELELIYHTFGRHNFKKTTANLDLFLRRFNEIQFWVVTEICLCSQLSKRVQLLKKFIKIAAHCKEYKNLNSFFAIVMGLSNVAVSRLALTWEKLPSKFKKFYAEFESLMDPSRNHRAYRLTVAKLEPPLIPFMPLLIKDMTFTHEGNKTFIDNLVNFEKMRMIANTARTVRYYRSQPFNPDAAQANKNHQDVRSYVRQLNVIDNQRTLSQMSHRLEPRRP
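Normalized against a 6.5 mM cAMP agonist control, compounds were tested on 100 nM EPAC2 exchanging Rap1B-bound BODIPY-GDP (250 nM) for 50 uM GDP. Fluorescence drop (ex 480, em 540 nm) was tracked at room temperature over 30 min at 5-min intervals.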
An asterisk follows results filed as active; ? = inconclusive; & = joins results of further samples; ! = repeats disagree; [ ] = another dose, or the depositor's remark. Potency means the concentration at half of the fitted maximal effect. Not all compounds are listed; count on the stated rates, not on these rows.

SMILES,EPAC2 ant val
CC(=O)Nc1ccccc1-c1nc(CNC(=O)c2ccc(C)cc2)c(C)o1,-32.8%
Cn1cccc1C(=O)N1CCC2(CC1)CN(c1ccncc1)C2,-22.9%
C/C=C1\C2C=C(C)CC1(N)c1ccc(=O)[nH]c1C2 (stereo not given),-21.5%[239 µM]
CCC1(C2CCN(C(=O)c3coc4c3C(=O)CCC4)CC2)NC(=O)N(CCc2scnc2C)C1=O (stereo not given),-7.5%
O=C(Nc1cc(C(=O)NC2CCOCC2)c2c(c1)ncn2C1CCCC1)c1ccccc1,?
CS(=O)(=O)N1CCC2(CCCN(C(=O)Nc3cccc(F)c3)C2)CC1,-14.4%
O=C(c1ccco1)N1CCC2(CCCN(c3cccc(-c4ccccc4)c3)C2)CC1,-14.6%
Cc1cc(C)n(CCC(=O)NCC2Cc3cc(Cl)cc(-c4cnccn4)c3O2)n1 (stereo not given),?
CCCCNC(=O)[C@@H]1CC=C[C@@H]2CCN(C3CC3)C(=O)[C@@H]21,-5.6%
CS(=O)(=O)Nc1c(O)ccc2c1CCC[C@H]2C1=NCCN1,-21.0%
COc1ccc(SC[C@H](C)CN2CC[C@H](NC(=O)OCc3ccccc3)CCC2=O)cc1,-20.1%
CC(C)C[C@@H](CO)N(Cc1ccccc1)S(=O)(=O)N(Cc1ccccc1)[C@@H](CO)CC(C)C,?

The list continues:
SMILES,EPAC2 ant val
O=C1NC(c2cccc([N+](=O)[O-])c2)=CCN1c1ccccc1O,?
CC(C(=O)O)c1ccc(C2CCCCC2)c2ccccc12 (stereo not given),-3.6%
CC(C)(S)[C@H](N)C(=O)O,-10.6%
Cn1ccc2cc(NC(=O)Nc3cccnc3)ccc21,-17.5%
COc1ccc(Oc2ncc3ncc(=O)n(Cc4cccs4)c3n2)cc1,?
CCNc1ncc2nc(-c3ccc(OC)cc3)c(=O)n(CCc3ccccc3)c2n1,-17.2%
COc1cc(CNC(=O)c2cnn(-c3ncc4c(n3)-c3ccccc3CC4)c2C)cc(OC)c1OC,-22.1%
CC(=O)N[C@@H](CS)C(=O)O,-23.8%
Cc1noc(C)c1C(=O)N1CCC2(CCN(Cc3ccccc3)CC2)CC1,-21.1%
COc1ccc2[nH]cc(CCNc3ncnc4ccc(-c5c(C)noc5C)cc34)c2c1,-27.0%
CCCCC[C@H](O)/C=C/[C@@H]1[C@@H](C/C=C\CCCC(=O)O)[C@@H](O)C[C@H]1O,-2.2%
O=C(c1cccc(F)c1)N1CCC2(CC1)CN(c1ncccn1)C2,-23.5%

(more compounds)
SMILES,EPAC2 ant val
Cc1nc2cnc(N(C)C)nc2n(C[C@H]2CCCO2)c1=O,-7.9%
COc1cc(S(C)=O)ccc1-c1nc2ncccc2[nH]1 (stereo not given),-19.5%
O=C(Nc1ccccc1)N1CC2(CCN(S(=O)(=O)c3ccccc3)CC2)C1,?
COc1ccc2[nH]c(=O)c3c(c2c1)OC(C)(C)C=C3,-2.7%&-17.2%
COc1ccc(CNc2ncnc3ccc(-c4cccc(NS(C)(=O)=O)c4)cc23)c(OC)c1,-20.4%
O=c1c(O)c(-c2ccc(O)c(O)c2)oc2cc(O)ccc12,-5.6%&-4.0%
c1ccc(CNc2nc(-c3ccc4c(c3)OCO4)nc3ccccc23)cc1,-22.1%
O=c1c(-c2ccc(Cl)cc2)nc2cnc(Nc3ccccc3)nc2n1C[C@H]1CCCO1,1.6%
CCCCNC(=O)O[C@H]1C[C@@H]2CCN3C(=O)CCC[C@H]([C@H]1Cc1ccccc1)[C@H]23,-15.5%
C[C@@H]1CN(c2c(F)c(N)c3c(=O)c(C(=O)O)cn(C4CC4)c3c2F)C[C@H](C)N1,3.6%
O=S(=O)(O)Oc1ccc(C(c2ccc(OS(=O)(=O)O)cc2)c2ccccn2)cc1,-11.2%
CC(C)(C)c1ccc(S(=O)(=O)N[C@H]2CC[C@@H](n3cc(C(=O)N4CCCC4)nn3)CC2)cc1,?

(more compounds)
SMILES,EPAC2 ant val
COc1ccccc1-c1cc(Nc2ccc(F)cc2)ncn1,-31.8%
O=C(NCc1ccncc1)c1cnn(-c2ncc3c(n2)-c2ccccc2CC3)c1C1CC1,-2.5%
O=C1CCN(Cc2ccccc2)CCN1CCO,-18.2%
Cc1cc(C(C)(C)C)c(O)c(C(C)(C)C)c1,-11.9%&-2.3%
Cc1cc(C(=O)Nc2ccccc2-c2nc(CNC(=O)c3cc4ccccc4cn3)c(C)o2)c(C)o1,-5.0%
CCC1C(=O)NCCN1Cc1ccc2c(c1)CN(Cc1cc(OC)c3c(c1)OCO3)CCO2 (stereo not given),?
COc1ccc(-c2nc3cnc(OC)nc3n(Cc3ccc(F)cc3)c2=O)cc1,-16.3%
c1ccc2[nH]c(-c3cscn3)nc2c1,-15.7%&-13.1%
C[C@@](N)(C(=O)O)c1ccc(C(=O)O)cc1,0.4%&-12.3%&-22.6%
CCCc1nn(C)c2c(=O)[nH]c(-c3cc(S(=O)(=O)N4CCN(C)CC4)ccc3OCC)nc12,-6.1%&-14.9%
COC(=O)[C@H]1[C@H]2C[C@@H]3c4[nH]c5cc(OC)ccc5c4CCN3C[C@H]2C[C@@H](OC(=O)c2cc(OC)c(OC)c(OC)c2)[C@@H]1OC,?
COC1C(O)CC(=O)OC(C)C/C=C/C=C/[C@@H](OC2CCC(N(C)C)C(C)O2)C(C)C[C@@H](CC=O)[C@@H]1O[C@H]1OC(C)[C@H](O[C@@H]2C[C@@](C)(O)C(O)C(C)O2)C(N(C)C)C1O (stereo not given in full),-28.6%

Continuation.
SMILES,EPAC2 ant val
Cc1ncc2c(c1CNC(=O)c1cncs1)CCN(C(=O)c1ccc(C(F)(F)F)cc1)C2,-12.4%
CCNc1ncc2nc(-c3cccc(C#N)c3)c(=O)n(C)c2n1,?
CC(C)(Oc1ccc(C2CC2(Cl)Cl)cc1)C(=O)O (stereo not given),1.9%&-15.4%
CN1CCN(c2ncc3nc(-c4cccs4)c(=O)n(Cc4cccs4)c3n2)CC1,4.1%
c1ccc(OCc2ccc(CCCN3CCOCC3)cc2)cc1,-17.5%
CN(C)C(=O)[C@@H]1C[C@@H](Sc2nc3ccccc3[nH]2)CN1Cc1ccnc2ccccc12,?
N#Cc1ccc(CN2CCC3(CC2)CCN(S(=O)(=O)c2ccccc2)CC3)cc1,-8.5%
CCCCCc1ccc(-c2cn(Cc3ccc4c(c3)C(=O)c3ccccc3C4=O)nn2)cc1,-29.9%
COc1ccc(C(=O)C2C3C4COC(O4)C(=O)C3C3C=Cc4ccccc4N32)c(OC)c1 (stereo not given),-8.6%
O=C(Cc1cccs1)N[C@@H]1C(=O)N2C(C(=O)[O-])=C(C[n+]3ccccc3)CS[C@H]12,45.0%[activator]
NC[C@@H]1O[C@H](O[C@H]2[C@@H](O)[C@H](O[C@@H]3[C@@H](O)[C@H](N)C[C@H](N)[C@H]3O[C@H]3O[C@H](CO)[C@@H](O)[C@H](O)[C@H]3N)O[C@@H]2CO)[C@H](N)[C@@H](O)[C@@H]1O,-27.1%
CC(C)(C)CC(C)(C)N=C1Nc2cc(Cl)c(Cl)cc2N[C@]12C[C@H]1CCCC(=O)N3CC[C@@H](C2)[C@@H]13,-21.0%

More results.
SMILES,EPAC2 ant val
COc1cccc(CN2CCC3(CC2)c2ccccc2[C@@H](NC(=O)c2ccccc2)[C@@H]3O)c1O,?
CC(C)NC(=O)N1CC2(CCN(S(=O)(=O)c3ccccc3)CC2)C1,-23.9%
CN(C)Cc1ccccc1-c1ccc2ncnc(N(C)C)c2c1,-12.9%
COc1ccc(-n2c(=O)c(-c3ccccc3)nc3cncnc32)cc1,-7.8%
CN(C)C1C(=O)C(C(N)=O)=C(O)[C@@]2(O)C(=O)C3=C(O)c4c(O)ccc(Cl)c4C(O)[C@H]3C[C@@H]12 (stereo not given in full),-14.4%
O=c1[nH]cnc2c1ncn2C1CC(O)C(CO)O1 (stereo not given),-2.3%
O=C(c1cccc(F)c1)N1CCC2(CC1)CCN(c1ccncc1)CC2,-15.8%
Cc1cccc(C)c1NC(=O)CN1CCCCCC1,9.1%
OCC1OC(n2cnc3c(=S)nc[nH]c32)C(O)C1O (stereo not given),-2.1%
O=C1CCC(c2ccccc2)(C2CCN(Cc3ccccc3)CC2)C(=O)N1 (stereo not given),-10.0%&-7.8%
COCC(=O)N1CCC[C@@]2(CCN(c3ccccn3)C2)C1,-21.2%
Oc1cc(-c2nc3ccccc3s2)cc2c1OCCN(Cc1cn[nH]c1-c1ccc(Cl)cc1)C2,-23.6%

Overlap with the part before: 2 compounds, followed by the next part.
SMILES	EPAC2 ant val
COCC(=O)N1CCC[C@@]2(CCN(c3ccccn3)C2)C1	-21.2%
Oc1cc(-c2nc3ccccc3s2)cc2c1OCCN(Cc1cn[nH]c1-c1ccc(Cl)cc1)C2	-23.6%
CCCC(=O)Nc1nc2c(ncn2[C@@H]2O[C@H]3COP(=O)(O)O[C@@H]3[C@@H]2OC(=O)CCC)c(=O)[nH]1	0.3%
Cn1cccc1C(=O)N1CCC2(CCCN(C(=O)Nc3cccc(C#N)c3)C2)CC1	-17.8%
COc1cc(-c2noc(C)c2C#Cc2nccn2C)cc(OC)c1OC	-29.2%
Cc1c(C(=O)NCc2nccs2)cnn1-c1ncc2c(n1)-c1ccccc1CC2	-10.6%
O=C(O)C[C@@H]1NC(=O)[C@H](Cc2ccccc2)NC1=O	-8.5%
c1cc2cc(-c3c(-c4ccc5c(c4)OCO5)noc3-c3ccsc3)ccc2[nH]1	?
CN(C)C(=O)c1ccc(-c2cncnc2NC2CCNCC2)cc1	-12.4%
O=C(C[N+]12CCCc3cccc(c31)CCC2)c1ccc2ccc3cccc4ccc1c2c34	?

In the list so far, four have a thiophene ring, fused or not:
SMILES	EPAC2 ant val
COc1ccc(Oc2ncc3ncc(=O)n(Cc4cccs4)c3n2)cc1	?
CN1CCN(c2ncc3nc(-c4cccs4)c(=O)n(Cc4cccs4)c3n2)CC1	4.1%
O=C(Cc1cccs1)N[C@@H]1C(=O)N2C(C(=O)[O-])=C(C[n+]3ccccc3)CS[C@H]12	45.0%[activator]
c1cc2cc(-c3c(-c4ccc5c(c4)OCO5)noc3-c3ccsc3)ccc2[nH]1	?

Carrying on:
SMILES	EPAC2 ant val
COc1ccccc1CCn1c(=O)c(CCc2ccccc2)nc2cncnc21	-7.5%
CC(=O)N1CCC2(CCN(Cc3ccc(C#N)cc3)CC2)CC1	-12.4%
COc1ccccc1C(=O)N[C@@H]1c2ccccc2C2(CCN(Cc3nc(C(C)C)cs3)CC2)[C@H]1O	?
CC(C)[C@H]1COCCS(=O)(=O)N1Cc1ccccc1	-27.8%
CC(CCC(=O)O)C1CCC2C3CC[C@H]4CC(O)CC[C@@]4(C)C3C=C[C@]12C (stereo not given in full)	-25.4%
COC(=O)N1CCC2(CC1)CN(C(=O)Nc1cccc(F)c1)C2	-21.5%
O=C(NC[C@@H]1CCCN2CCCC[C@H]12)c1cnn(-c2nccc(-c3cc4ccccc4o3)n2)c1C1CC1	-8.8%
COc1ccc(-n2c(=O)c(-c3ccc(F)c(F)c3)nc3cncnc32)cc1	-2.9%

Some of the entries above in a different format:
> COc1ccccc1C(=O)N[C@@H]1c2ccccc2C2(CCN(Cc3nc(C(C)C)cs3)CC2)[C@H]1O
  EPAC2 ant val: ?

> CC(CCC(=O)O)C1CCC2C3CC[C@H]4CC(O)CC[C@@]4(C)C3C=C[C@]12C (stereo not given in full)
  EPAC2 ant val: -25.4%

> CC(=O)N1CCC2(CCN(Cc3ccc(C#N)cc3)CC2)CC1
  EPAC2 ant val: -12.4%

(continued)
SMILES	EPAC2 ant val
CN1CCN(c2nc(-c3ccc4c(c3)OCO4)nc3ccccc23)CC1	-19.6%
C[N+]1(CC2COC(c3ccccc3)(c3ccccc3)O2)CCCCC1 (stereo not given)	16.7%
Cc1ccccc1-c1cc(N2CCNCC2)ncn1	-7.3%
Cc1cccc2c(N3CCCC3)nc(CNS(=O)(=O)c3ccccc3F)nc12	-19.6%
COCC(=O)N1CCC[C@@]2(CCN(Cc3cc(C(F)(F)F)cc(C(F)(F)F)c3)C2)C1	?
CC(=O)OC1C[C@]2(C)[C@@H](CC(O)C3[C@]4(C)CCC(O)C(C)[C@@H]4CC[C@]32C)/C1=C(/CCC=C(C)C)C(=O)O (stereo not given in full)	-15.8%
CC(N)CCCC(C)(C)O (stereo not given)	9.2%
Cc1ccc(-c2cc(C(F)(F)F)nn2-c2ccc(S(N)(=O)=O)cc2)cc1	?

Remaining list, next part.
SMILES	EPAC2 ant val
c1ccc(CC[n+]2ccncc2)cc1	-2.1%
COc1ccc(NC(=O)N2CC3(CCN(C(=O)c4ccncc4)CC3)C2)cc1	-24.4%
COc1ccc(C(=O)c2ccccc2O)c(O)c1	44.7µM*!
NC(=O)[C@@H]1CCCN1C(=O)c1cc(NC(=O)c2ccccc2)cc2ncn(C3CCCC3)c12	-26.9%
O=C(O)CCCCCCCCc1cn(Cc2ccc(C(=O)c3ccccc3)cc2)nn1	-29.3%
CN1CCN(c2ncncc2-c2ccccc2C(F)(F)F)CC1	-13.0%
CN(C)C(N)=NCCC[C@H](N)C(=O)O	-12.8%
OCC1O[C@H](O)C(Cl)C(O)C1O (stereo not given in full)	-16.0%

The list goes on.
SMILES	EPAC2 ant val
Cn1nnnc1SCC1=C(C(=O)O)N2C(=O)[C@@H](NC(=O)[C@H](O)c3ccccc3)[C@H]2SC1	7.6%[56.6 µM]
CC(C)C[C@@H](CC#N)N1CCN(Cc2ccccc2)CCC1=O	-3.1%
CCCCCCCCCCCCCCCC[n+]1ccc(/C=C/c2c[nH]c3ccccc23)cc1	491.1%[activator]
CCOc1ccc2c(c1)C(C)=CC(C)(C)N2	?
